# Source: PubChem
# miR-21 FLuc = qHTS Assay for Modulators of miRNAs and/orActivators of miR-21 | HeLa miR-21 FLuc reporter, luciferase, 48 h | 340,000 tested, under 10 active | AID 2288, 2010 | Potency, µM (doses to about 38.3 µM), for inactives: at the top dose reporter change, positive = more light; active = well fitted rising curve with a large enough effect; inconclusive = small, poorly fitted or top-dose-only effect; inactive = no such curve, though single readings can be large or run the other way;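 further: % of control where 0% means no effect; miR-21 action dims this reporter so a rising signal means less miR-21 action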
#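 HeLa miR-21-FLuc reporter line, endogenous miR-21; 2000 cells/well in DMEM/10% FBS; compound titration up to ~40uM final, 48 h, 37 degree Celsius; luciferase detection reagent, 15 min lysis, CCD luminescence.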
# GLA inh pH 4.5 = qHTS Assay for Inhibitors of Human alpha-Galactosidase at pH 4.5; Alpha-galactosidase A (Homo sapiens), P06280; purified enzyme, 4-MU-alpha-Gal fluorescence, pH 4.5; activity change, negative = inhibition, % at 105 µM; 230,000 tested, under 10 active; inconclusive = small, poorly fitted or top-dose-only inhibition, or a rising curve; inactive = flat fitted curve, though single readings scatter; no compound was filed as active;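 further: 0% = full activity with enzyme and -100% = basal without enzyme; dose as in the result columns while the protocol names 77 µM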
# Rango release inh = qHTS Assay for Inhibitors of RanGTP induced Rango (Ran-regulated importin-beta cargo) - Importin beta complex dissociation | Biochemical FRET Rango-importin beta, RanGTP-induced dissociation | 340,000 compounds, 0.071% hits | Snurportin-1 (Homo sapiens) + GTP-binding nuclear protein Ran (Homo sapiens) + Importin … | Potency, µM (doses to about 46.1 µM), inactives show top-dose activity change, negative = inhibition | AID 540253, 2011; active means falling FRET ratio curve, often poorly fitted, with flat reads before Ran was added; inconclusive means other falling curves, or compound fluorescence or quenching; inactive means flat or rising ratio curve;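 further: potency means the concentration at half of the fitted maximal effect; % of control where 0% means no effect; nearly all actives have a fitted effect of over 45% in size; -100% = wells without RanGTP and RCC1; the record marks most hits as doubtful in a second field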
#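 Compounds preincubate 5 min with complex of recombinant Rango and importin beta in PBS with 1 mM DTT. Ran (0.6 uM) loaded with 2 mM GTP plus 0.2 uM RCC1 starts dissociation; FRET is recorded 45 min later.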
# Rango-impB inh = qHTS Assay for Inhibitors of Rango (Ran-regulated importin-beta cargo) - Importin beta complex formation. AID 540263, 2011. 340,000 compounds, 0.031% hits. Importin subunit beta-1 (Homo sapiens), Q14974. Potency, µM (doses to about 92.2 µM), for inactives: at the top dose inhibition of complex formation. Rango CFP/YFP FRET sensor + importin beta, 45 min; active = rising FRET ratio curve, often small or poorly fitted; inconclusive = mostly compound fluorescence or quenching in the first reads; inactive = flat curves in all reads;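 further: potency means the concentration at half of the fitted maximal effect; 0% = DMSO wells and 100% = buffer wells lacking importin beta; nearly all actives have a fitted effect of over 15% in size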
# Target sequence (Q14974 whole entry, looked up): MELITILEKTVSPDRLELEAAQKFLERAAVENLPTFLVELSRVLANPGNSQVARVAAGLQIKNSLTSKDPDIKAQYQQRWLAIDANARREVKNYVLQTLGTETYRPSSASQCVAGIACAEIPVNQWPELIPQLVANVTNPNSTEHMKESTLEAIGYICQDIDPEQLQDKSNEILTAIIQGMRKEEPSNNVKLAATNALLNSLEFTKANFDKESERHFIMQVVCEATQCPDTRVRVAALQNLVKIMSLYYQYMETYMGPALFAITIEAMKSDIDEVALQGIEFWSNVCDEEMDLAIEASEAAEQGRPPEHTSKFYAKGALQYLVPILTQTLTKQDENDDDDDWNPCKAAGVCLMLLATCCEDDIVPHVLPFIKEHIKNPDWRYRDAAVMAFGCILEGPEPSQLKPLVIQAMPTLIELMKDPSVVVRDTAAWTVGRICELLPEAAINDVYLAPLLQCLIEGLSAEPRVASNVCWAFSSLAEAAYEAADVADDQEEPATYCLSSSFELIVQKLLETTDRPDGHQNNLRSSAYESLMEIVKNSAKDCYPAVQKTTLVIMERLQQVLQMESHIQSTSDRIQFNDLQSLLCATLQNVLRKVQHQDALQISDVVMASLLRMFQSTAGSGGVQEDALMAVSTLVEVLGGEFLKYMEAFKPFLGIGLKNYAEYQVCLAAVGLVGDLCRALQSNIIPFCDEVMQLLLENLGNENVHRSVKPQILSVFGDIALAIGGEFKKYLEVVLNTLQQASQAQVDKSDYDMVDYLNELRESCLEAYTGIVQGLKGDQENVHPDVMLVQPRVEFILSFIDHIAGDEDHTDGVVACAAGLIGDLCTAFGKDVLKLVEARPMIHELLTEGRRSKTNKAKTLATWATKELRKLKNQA
#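 FRET biosensor Rango (snurportin 1 IBB between N-terminal EYFP and C-terminal Cerulean), 50 nM in PBS/1 mM DTT/0.02% Tween-20/0.1% BSA, preincubated 5 min RT with compound; 0.125 microM importin beta added, 45 min RT, CFP/YFP FRET ratio read.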
# Numbers without * were called inactive; ? = inconclusive; · = not tested or not shown. Some of the compounds tested; rates above refer to the full screens.
SMILES,miR-21 FLuc,GLA inh pH 4.5,Rango release inh,Rango-impB inh
COCc1ccc(O)c2ncccc12,?,2,12%,0.3%
CN(CC(=O)Nc1ccccc1Cl)C(=O)Cn1cc(C(F)(F)F)ccc1=O,·,·,-10%,-1.7%
CC(C)c1ncc(C(O)c2cccc3ccccc23)n1C (stereo not given),-4%,-3,2%,2.8%
CC(C)(C)OC(=O)NCCCCc1cn(CC(=O)N2CCN(C(=O)OC(C)(C)C)CC2)nn1,0%,-2,-6%,-0.7%
CCn1c(-c2ccc(F)cc2)cnc1SCC(=O)N1CCc2ccccc21,-74%,3,·,·
C1CC1C(=NN=C(C1CC1)C1CC1)C1CC1,·,·,15%,-1.0%
CCCCN(C(=O)c1nn(C)c(=O)c2ccccc12)c1c(N)n(CCC)c(=O)[nH]c1=O,·,·,1%,-2.3%
Brc1ccc(N=Cc2ccccn2)cc1,-31%,-2,-12%,-2.1%
COc1cccc(C2=NOC(C(=O)NCc3ccc(F)cc3)C2)c1 (stereo not given),-1%,4,-3%,1.9%
COc1ccccc1C(=O)NC(=O)COC(=O)c1ccc([N+](=O)[O-])cc1,·,·,-9%,0.8%
Cc1n[nH]c(C)c1Sc1ccccc1N,-6%,-2,8%,-2.4%
Cc1ccc(C(=O)N2CCOCC2)cc1S(=O)(=O)N1CCCCC1,-3%,·,3%,-0.4%
CCOC(=O)c1[nH]c(C)c(C(=O)OCC(=O)N2CC(=O)Nc3ccccc32)c1C,1%,7,-13%,-2.7%
COc1ccc(CC(=O)OC(C)C(=O)c2ccc(C)cc2)cc1 (stereo not given),3%,·,1%,-3.9%
COCCCN1C(=O)C(=O)/C(=C(/O)c2ccc(S(=O)(=O)N3CCCCC3)cc2)C1c1ccc(O)c(OC)c1 (stereo not given),-4%,·,10%,0.2%
CN(C)N1C(=O)/C(=C/c2ccco2)SC1=Nc1ccccc1,·,·,3%,?
N#Cc1ccc(CSc2nnc3ccccn23)cc1,-3%,4,2%,3.0%
O=C(Cc1ccccc1[N+](=O)[O-])c1ccc2c(c1)OCO2,·,·,-15%,1.3%
CC1CN(C(=O)COC(=O)c2cc3ccccc3cc2O)CC(C)O1 (stereo not given),·,·,17%,-1.0%
COc1cccc(CN(C)C(=O)c2cc(S(=O)(=O)N3CCCCCC3)ccc2OC)c1,·,·,-7%,-0.9%
CCCOc1c(Cl)cc(C(=O)NC)cc1OC,-5%,2,11%,0.7%
CCOc1ccc(C(=O)NCC(=O)OCC(=O)N2C(C)CCCC2C)cc1 (stereo not given),0%,-3,4%,-3.8%
CCCCNC(=S)N(C)/N=C/c1ccc2c(c1)OCO2,1%,2,0%,1.5%
COc1cc(C(=O)Cc2nc3ccccc3n2C)cc(OC)c1OC,-6%,·,-10%,4.7%
Cc1cc(OC(=O)c2ccc(C(C)(C)C)cc2)c([N+](=O)[O-])c(=O)[nH]1,-3%,·,9%,1.7%
Cc1ccc(NC(=O)CC2SCCNC2=O)cc1[N+](=O)[O-] (stereo not given),-21%,-10,4%,1.9%
CC(C)NC(=O)N(C)C[C@H]1Oc2ccc(NS(=O)(=O)c3ccccc3)cc2C(=O)N([C@H](C)CO)C[C@@H]1C,·,·,-11%,7.5%
CCCCc1nnc(NC(=O)C(C)Sc2nc(O)c(Cc3ccccc3)c(=O)[nH]2)s1 (stereo not given),1%,0,-4%,-0.2%
O=C(CCc1ccccc1)NCc1ccc(F)cc1,-7%,·,6%,-1.8%
CC(C)(O)C1=NOC(c2ccccc2)C1 (stereo not given),-4%,-5,-5%,1.7%
CCOC(=O)c1ccc(NC(=S)N(CCN(C)C)Cc2cccs2)cc1,21%,-9,-11%,4.0%
CCOc1ccc(N(C)C(=O)CCc2nnc3ccc(N4CCCC4)nn23)cc1,-8%,·,-23%,0.3%
COc1ccc(-c2[nH]ncc2C2N=C(N)Nc3nc4ccccc4n32)cc1 (stereo not given),4%,1,-7%,-5.4%
COC(=O)C1=C(C)NC(=O)CC1c1ccccc1F (stereo not given),-2%,-5,12%,1.9%
Nc1ccccc1SC1CC(=O)N(c2ccc3c(c2)OCO3)C1=O (stereo not given),-30%,3,-14%,-0.3%
COC(=O)c1cccc(NC2CC(=O)N(c3ccc(OC)c(OC)c3)C2=O)c1 (stereo not given),-1%,1,-7%,0.1%
O=C(COc1ccc(Cl)cc1)N1CCN(C(=O)c2ccccc2F)CC1,3%,·,0%,-0.7%
O=C(Nc1ccc(Cl)c(S(=O)(=O)N2CCOCC2)c1)c1ccncc1,·,·,-8%,3.4%
S=C(N/N=C/c1ccc2c(c1)OCO2)NC1CC2CCC1C2 (stereo not given),-9%,-6,-8%,-1.0%
COc1ccc2nc(C)cc(SCC(=O)NNC(=O)COc3ccc(C)cc3)c2c1,0%,6,-1%,-2.8%
COC(=O)c1cccc(NC(=S)N2CCN(c3ccccc3F)CC2)c1,-4%,5,-1%,-4.6%
O=C1CCC/C1=C\Nc1ccc(Cl)c([N+](=O)[O-])c1,-14%,-7,0%,2.4%
Cc1ccccc1/C=N/NC(=O)CSc1nc2ccccc2o1,-51%,1,9%,-0.6%
Cc1noc(C)c1NC(=O)N(C)C[C@H]1Oc2ccc(NS(=O)(=O)c3ccccc3)cc2C(=O)N([C@H](C)CO)C[C@@H]1C,·,·,-5%,-5.8%
CC(NC(=O)[C@H](C)NC(=O)N1CCn2c1nc1ccccc12)c1ccccc1 (stereo not given in full),0%,·,-15%,-2.1%
COc1cccc(C(C(=O)NC2CCCC2)N(C(=O)c2csnn2)C2CC2)c1 (stereo not given),0%,·,1%,8.4%
Cc1ccn(CCC(=O)N2CCCC(CCC(=O)N3CCN(c4ccccn4)CC3)C2)n1 (stereo not given),-2%,2,0%,-0.8%
N#Cc1ccc(C(=O)OCC(=O)NC(=O)NCc2ccccc2)cc1,·,·,5%,5.3%
Cc1cccc(NC(=S)NC(=O)c2cccs2)n1,-49%,5,6%,2.6%
C=CCn1c(C(CC)CC(C)(C)O)n[nH]c1=S (stereo not given),1%,-14,0%,?
O=[N+]([O-])c1ccc(Oc2cccc(C(F)(F)F)c2)nc1,6%,0,3%,3.6%
C#CCOCCOCCOCCNc1nc(N2CCOCC2)nc(N2CCN(C(=O)[C@H](Cc3cc4ccccc4[nH]3)n3cc([C@@H](N)C(C)CC)nn3)CC2)n1 (stereo not given in full),-5%,-3,-16%,3.3%
CC(NC(=O)C1CCCO1)c1ccccc1 (stereo not given),4%,2,4%,-4.0%
CCOC(=O)c1c(C)[nH]c(C(=O)N2CCN(C(=O)OCC)CC2)c1C,-1%,·,11%,-1.7%
Cc1c(NC(=O)C(C)OC(=O)c2nc(Cl)ccc2Cl)c(=O)n(-c2ccccc2)n1C (stereo not given),-1%,·,-3%,0.2%
Cc1cc(NC(=O)Cn2nc(C)c([N+](=O)[O-])c2C)no1,-3%,3,12%,5.2%
O=C1CC(=C(c2ccccc2)c2ccccc2)C(=O)N1CCCCN1CCN(c2ccccc2)CC1,25%,-10,1%,0.7%
COc1ccc(C2=NS(=O)(=O)N(C)C(C(=O)NCc3ccc4c(c3)OCO4)=C2)cc1OC,6%,·,5%,?
CCCN1CCN(CCCNC(=O)Cn2ncc3c4ccccc4n(C)c3c2=O)CC1,-8%,2,-3%,5.5%
COc1cccc2cc(C(=O)NNC(=O)c3ccc(Br)cc3)c(=O)oc12,0%,-14,20%,14%

# The results go on:
SMILES,miR-21 FLuc,GLA inh pH 4.5,Rango release inh,Rango-impB inh
COc1ccc(OC)c(N=c2oc3c(OC)cccc3cc2C(=O)NCc2ccco2)c1,-5%,6,0%,0.6%
COC(=O)c1ccc(C)c(NC(=O)CN(c2ccccc2)S(=O)(=O)N(C)C)c1,7%,-2,-1%,6.0%
CS(=O)(=O)N(CC(=O)Nc1ccccc1-c1ccccc1)c1ccccc1,-5%,-8,8%,-2.8%
CC(=O)N1CCc2cc(S(=O)(=O)CCC(=O)N(C)Cc3ccco3)ccc21,-6%,·,27%,-1.4%
O=C(Nc1ccccc1O)N1c2ccccc2Sc2ccccc21,-7%,·,-22%,1.4%
CCO[C@H]1OC(C(=O)N2CCN(C)CC2)=C[C@@H](C)[C@@H]1CCCO,-2%,2,7%,0.4%
CN(C(=O)CCN1C(=O)C(C)(C)Nc2ccccc21)c1ccccc1,-9%,-5,9%,1.2%
CC1(C)Cc2c(sc3nc4n(-c5ccccc5)c(=O)c(CCC(=O)O)nn4c(=O)c23)CO1,-2%,-9,0%,-1.7%
COc1ccc(OCC(O)COc2ccc(OC)cc2)cc1,-14%,2,7%,-0.6%
CCOC(=O)CC1Sc2ccccc2NC1=S (stereo not given),-4%,-10,10%,0.5%
Cc1ccccc1NC(=O)c1ccccc1N(C)S(=O)(=O)c1ccccc1,·,·,-8%,0.0%
N#Cc1c(Nc2ccccc2)sc(C(=O)C2CC2)c1N,-15%,1,-18%,0.4%

# A stretch from further up:
SMILES,miR-21 FLuc,GLA inh pH 4.5,Rango release inh,Rango-impB inh
Cc1ccccc1NC(=O)c1ccccc1N(C)S(=O)(=O)c1ccccc1,·,·,-8%,0.0%
N#Cc1c(Nc2ccccc2)sc(C(=O)C2CC2)c1N,-15%,1,-18%,0.4%

# Full records as entered above. Screens in order: miR-21 FLuc | GLA inh pH 4.5 | Rango release inh | Rango-impB inh
# Cc1cc(OC(=O)c2ccc(C(C)(C)C)cc2)c([N+](=O)[O-])c(=O)[nH]1 across the screens: -3% | · | 9% | 1.7%
# COc1cc(C(=O)Cc2nc3ccccc3n2C)cc(OC)c1OC across the screens: -6% | · | -10% | 4.7%
# O=C1CCC/C1=C\Nc1ccc(Cl)c([N+](=O)[O-])c1 across the screens: -14% | -7 | 0% | 2.4%
# CCO[C@H]1OC(C(=O)N2CCN(C)CC2)=C[C@@H](C)[C@@H]1CCCO across the screens: -2% | 2 | 7% | 0.4%
# S=C(N/N=C/c1ccc2c(c1)OCO2)NC1CC2CCC1C2 (stereo not given) across the screens: -9% | -6 | -8% | -1.0%

# Next part:
SMILES,miR-21 FLuc,GLA inh pH 4.5,Rango release inh,Rango-impB inh
O=C(C1CC1)N1CCc2cc(Br)cc(S(=O)(=O)N3CCOCC3)c21,-2%,-2,2%,0.4%
COc1ccc(Nc2nc(N)c(C(=O)c3ccc(F)cc3)s2)cc1,14%,·,-17%,?
O=C(COC(=O)c1ccccc1[N+](=O)[O-])NC(=O)c1ccccc1,·,·,-2%,-0.1%
CCOc1ccc(C(=O)CCC(=O)N2CCN(c3ccccc3O)CC2)cc1,·,·,-10%,0.1%
COc1ccc(OC)c(S(=O)(=O)n2ccnc2C(C)C)c1,-3%,·,1%,3.9%
CN(Cc1cn(-c2ccccc2)nc1-c1ccc(Cl)cc1)C(=O)CCC(=O)O,-16%,-9,3%,5.7%
CCOc1ccccc1NS(=O)(=O)c1c[nH]c(C(=O)OC)c1,14%,·,8%,2.8%
CCCCC(=O)OCC(=O)c1[nH]c(C)c(C(C)=O)c1C,-3%,0,3%,-2.8%
O=C(NCc1ccncc1)c1cc(C(=O)C2CCCCC2)c[nH]1,3%,-1,-8%,-1.0%
O=C(/C=C/c1ccc2c(c1)OCO2)N1CCN(c2n[nH]c(=O)[nH]c2=O)CC1,2%,1,0%,?
CN1CCCN(C(=O)c2cccc3ccccc23)CC1,0%,·,10%,-6.1%
COc1cc2c(cc1OC)C1=C(C#N)CC/C(=N\S(=O)(=O)c3ccccc3)N1CC2,-23%,-2,-17%,?
CCSc1ccc([C@@H]2[C@H]3C(=O)N(CC)C(=O)[C@H]3[C@]3(C(=O)OC)CCCCN23)cc1OC,·,·,?,?
O=C1CN(C(=O)c2ccccc2)C(c2ccccc2)c2cc(Cl)ccc2N1 (stereo not given),3%,·,-1%,-0.6%
C/C(=N\NC(=S)NC1CCCCC1)c1ccccc1,-32%,-2,1%,-2.2%
Cc1cccc(N2CCN(C(=O)CC(NC(=O)c3ccccc3)c3ccccc3)CC2C)c1 (stereo not given),-3%,-1,-1%,-1.6%
Cc1cccc(OCCOC(=O)C2CCN(S(=O)(=O)c3cccs3)CC2)c1,0%,-26,10%,2.2%
